Screening results (PubChem BioAssay)
TDP1 cell CPT – qHTS for Inhibitors of human tyrosyl-DNA phosphodiesterase 1 (TDP1): qHTS in cells in presence of CPT; hit rate 12% among 420,000; AID 686979, 2013; chicken DT40 Tdp1-/-;hTDP1 cells + 20 nM CPT, ATP luminescence, 48 h; Potency, µM (titrated, usually from 46.2 µM), for the others: at the highest dose activity change, negative = growth inhibition, hits mostly inhibitors; further: nearly all actives have a fitted effect of over 55% in size
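Cell growth measured by CellTiter-Glo luminescence after a minimum 48 h, 37 C compound exposure with 20 nM CPT in Tdp1-knockout DT40 cells stably expressing hTDP1, seeded 400/well; qHTS titration format.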
N370S GC – qHTS Assay for Inhibitors and Activators of N370S glucocerebrosidase as a Potential Chaperone Treatment of Gaucher Disease; N370S GC spleen homogenate, 4MU-glucoside fluorescence; Potency, µM (top dose mostly 59.4 µM), for the others: at the top dose activity change, negative = inhibition, most hits filed as inhibitors; hit rate 0.092% among 330,000;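 further: 0% = full enzyme activity and -100% = no enzyme basal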
An asterisk follows results filed as active; ? = inconclusive; / = not tested or not shown; & = joins results of further samples. The call rests on the fitted dose curve; in most records, active means well fitted curve in the direction sought with a large enough effect; inconclusive means small, poorly fitted or top-dose-only effect, or another doubt; inactive means no such curve, though single readings can be large; an effect the other way counts as inactive or inconclusive. Unless noted, on the % scale 0 is the no-effect control and ±100 the full control effect; potency means the concentration at half of the fitted maximal effect. This is a subset; most or all hits stand in other tables.

The first 15 records (preview)
SMILES	TDP1 cell CPT	N370S GC
CN(CCC#N)C(=O)CC(Cc1ccccc1)C1CCOC(C)(C)C1 (stereo not given)	5%	3%
CCc1noc(C)c1C(=O)OC(C)C(=O)Nc1ccccc1OC (stereo not given)	5%	-2%
CC(c1ccccc1)c1nnc(NC(=O)c2ccc3c(c2)OCO3)s1 (stereo not given)	?	6%
N#CCCN(Cc1cccs1)C(=O)Nc1ccccc1	5%	1%
OC1(c2ccccc2)C/C(=N\n2cnnc2)C=C1c1ccccc1 (stereo not given)	-11%	5%
c1csc(CSc2nnc3sc4ccccc4n23)c1	0%	-6%
Nn1c(SCC(=O)N2CCOCC2)nnc1C1CC1	4%	1%
Cc1nccn1-c1cc(C(C)(C)C)nc2c(-c3ccccc3)cnn12	?	8%
Cc1occc1C(=O)N/N=C/c1ccc(Cl)c([N+](=O)[O-])c1	?	1%
CCN1CCN(C(=O)Cn2ncc3c([nH]c4ccc(C)cc43)c2=O)CC1	18%	-1%
CC(Cc1ccccc1)C(=O)N[C@@H](CO)Cc1ccccc1 (stereo not given in full)	15%	5%&2%
O=C(Nc1ccc(Cl)cc1C(=O)N1CCOCC1)c1ccco1	6%	-10%
COC(=O)C1=C(C)N(Cc2ccccc2)C(=S)N[C@H]1c1ccccc1	?	7%&2%
CC(C)C(=O)Nc1ccc2c(c1)Cc1cc(NC(=O)C(C)C)ccc1-2	-13%	1%
CCOCCCNC(=O)C(NC(=O)c1ccccc1O)c1ccc(Cl)cc1 (stereo not given)	-7%	27%

All compounds of this part (from the top)
SMILES	TDP1 cell CPT	N370S GC
CN(CCC#N)C(=O)CC(Cc1ccccc1)C1CCOC(C)(C)C1 (stereo not given)	5%	3%
CCc1noc(C)c1C(=O)OC(C)C(=O)Nc1ccccc1OC (stereo not given)	5%	-2%
CC(c1ccccc1)c1nnc(NC(=O)c2ccc3c(c2)OCO3)s1 (stereo not given)	?	6%
N#CCCN(Cc1cccs1)C(=O)Nc1ccccc1	5%	1%
OC1(c2ccccc2)C/C(=N\n2cnnc2)C=C1c1ccccc1 (stereo not given)	-11%	5%
c1csc(CSc2nnc3sc4ccccc4n23)c1	0%	-6%
Nn1c(SCC(=O)N2CCOCC2)nnc1C1CC1	4%	1%
Cc1nccn1-c1cc(C(C)(C)C)nc2c(-c3ccccc3)cnn12	?	8%
Cc1occc1C(=O)N/N=C/c1ccc(Cl)c([N+](=O)[O-])c1	?	1%
CCN1CCN(C(=O)Cn2ncc3c([nH]c4ccc(C)cc43)c2=O)CC1	18%	-1%
CC(Cc1ccccc1)C(=O)N[C@@H](CO)Cc1ccccc1 (stereo not given in full)	15%	5%&2%
O=C(Nc1ccc(Cl)cc1C(=O)N1CCOCC1)c1ccco1	6%	-10%
COC(=O)C1=C(C)N(Cc2ccccc2)C(=S)N[C@H]1c1ccccc1	?	7%&2%
CC(C)C(=O)Nc1ccc2c(c1)Cc1cc(NC(=O)C(C)C)ccc1-2	-13%	1%
CCOCCCNC(=O)C(NC(=O)c1ccccc1O)c1ccc(Cl)cc1 (stereo not given)	-7%	27%
OC(CNCc1ccccc1F)(c1ccc(F)cc1)c1ccc(F)cc1	-20%	-18%
Cc1cccc(C)c1N(CC(=O)N1CCN(C)CC1)S(C)(=O)=O	-9%	7%
Oc1ccc(Oc2ncc(Cl)cc2Cl)cc1	?	0%
COc1ccc(C2C=C(c3ccccc3)Nc3ncnn32)cc1 (stereo not given)	18µM*	-3%
Cc1ccc(S(=O)(=O)C2(C(=O)N(C)C3CCCCC3)CC2)cc1	4%	-8%
COc1cc(/C=N/Nc2ccccc2)ccc1OC(=O)c1cccs1	-7%	8%
CCOC(=O)c1[nH]c(C)c(C(=O)NC2CCN(C(=O)OCC)CC2)c1C	0%	2%
CCCCNC(=O)CCn1c(=O)c2cccn2c2ccc(F)cc21	?	-3%
CCCc1cc(C(=O)Nc2cccc(Cl)c2C)no1	2%	-1%
COC(=O)c1ccc(-c2cc(CC3(C(=O)OC)CCN(C(=O)OC(C)(C)C)CC3)on2)cc1	23µM*	2%
CC1CN(C(=O)COC(=O)[C@@H]2CC(O)CN2S(=O)(=O)c2ccc3c(c2)OCCO3)CC(C)O1 (stereo not given in full)	-9%	1%
COc1ccc2c(c1)c1nnc(SCC(=O)Nc3ccccc3F)nc1n2C	-23%	0%
Cc1onc(-c2ccccc2)c1C(=O)N/N=C/c1cccc(O)c1	-17%	6%
CC(=O)c1ccc(OCc2cc(C(=O)N3CCCCC3c3cccnc3)no2)cc1 (stereo not given)	21µM*	-2%
Cc1cc(SCC(=O)OCC(=O)NCC2CCCO2)c(C)cc1Br (stereo not given)	-20%	2%
CSc1ccc(S(=O)(=O)Nc2c(C)n(C)n(-c3ccccc3)c2=O)cc1	0%	1%
Cc1cc(C)cc(OCC(=O)O/N=C(\N)c2cccnc2)c1	-11%	9%
O=C(Nc1ccccc1)N(CCCN1CCOCC1)Cc1cccs1	-2%	-10%
Cc1ccccc1NC(=O)COc1ccccc1C	0%	6%
COc1ccccc1CNCc1cccc(Oc2ccccc2)c1	?	-12%
CCOC(=O)NC1Cc2ccccc2C1Sc1ccccn1 (stereo not given)	-2%	-17%
O=[N+]([O-])c1ccc(Cl)c(NC2=NCCCCC2)c1	7%	-1%
COc1ccc(C)cc1NC(=O)C(OC(=O)CNC(=O)c1ccc(Br)cc1)c1ccccc1 (stereo not given)	-27%	20%
O=C(c1ccccc1)c1ccc(-n2ccnc2)c([N+](=O)[O-])c1	-26%	-1%
CCOC(=O)c1cc(C(C)C)sc1NC(=O)COC(=O)c1nccnc1N	?	3%
Cc1cc(C)n(-c2ncc(C#N)cn2)n1	3%	7%
O=C(Nc1cccc(C(F)(F)F)c1)c1ccccc1NC(=O)C1CCCCC1	-18%	5%
Cc1nnsc1-c1c(C(=O)N2CCOCC2)c(C)nn1-c1ccc(Cl)cc1	13%	28%
Cc1ccc(C)c(OCCSc2nnc(C)c(=O)[nH]2)c1	-3%	-1%
CC1CCN(C(NC(=O)c2ccco2)C(=O)c2ccccc2)CC1 (stereo not given)	-18%	-9%
COCCn1ccc(O)c(Cc2ccc(Cl)cc2)c1=O	-5%	1%
CCN(CC)CCN(CC(=O)N(C1CCCCC1)C1CCCCC1)C(=O)c1ccco1	?	-4%
CC1=C(C(=O)O)N2C(=O)[C@@H](NC(=O)C(N)C3=CCC=CC3)[C@H]2SC1 (stereo not given in full)	/	0%
O=c1c2c(nc3n1CCS3)c1cc(F)ccc1n2Cc1cc(=O)n2cc(Cl)ccc2n1	-24%	8%
Cc1ccc(-c2nn(CC(N)=O)c(=O)c3ccccc23)cc1S(=O)(=O)N(C)C	-12%	2%
Next part.
SMILES	TDP1 cell CPT	N370S GC
O=C(CSc1ccccc1)Nc1nccs1	26%	-9%
NS(=O)(=O)c1ccc(NC(=S)Nc2ccc(C(=O)N3CCCCC3)cc2)cc1	-6%	-15%
CNC(=O)CSc1nnc(-c2cnccn2)n1C	-10%	-14%
Cc1ccc(CNC(=O)C2CCN(S(=O)(=O)c3c(C)noc3/C=C/c3ccco3)CC2)cc1	-16%	-3%
O=C1C2CCCCC2C(=O)N1c1ccc(NC2CCCCC2)c([N+](=O)[O-])c1 (stereo not given)	?	6%
NCCNc1ccc([N+](=O)[O-])cc1	-23%	-7%
CN(C)S(=O)(=O)c1cccc(NC(=S)NC2CCCCC2)c1	-22%	-9%
COc1ccc(N(CC(=O)NCc2cccnc2)S(=O)(=O)c2ccc(C)c([N+](=O)[O-])c2)cc1	4%	-4%
COc1cc(NS(=O)(=O)c2ccc(N/C=C\C(=O)c3ccc(OC)c(OC)c3)cc2)nc(OC)n1	?	4%
CCOc1ccc2[nH]c(C(=O)N/N=C/c3ccccc3OC)cc2c1	5.8µM*	-3%
CCc1ccccc1N(CC(=O)N/N=C/c1ccc(OC(=O)OC)c(OC)c1)S(C)(=O)=O	?	-6%
CC(CN1CCCCC1)OC(=O)c1cc2ccccc2o1 (stereo not given)	-8%	3%
O=C(CNC(=O)c1ccc(F)cc1)c1ccc(Cl)cc1	?	-3%
Cc1cccc2c3c([nH]c12)CCNC3	8%	-14%
CCOC(=O)C(=CNc1ccc(Oc2cccnc2)nc1)C(=O)OCC	?	-4%
COc1ccc(CC(=O)OCC(=O)Nc2ccc(Cl)c(S(=O)(=O)N(C)C)c2)cc1	-9%	-3%
CCOC(=O)c1cnc2ccc(OC)cc2c1NCCc1ccc(OC)c(OC)c1	6.5µM*	0%
NC(=O)c1nsc(C(=O)N(c2cccc(F)c2)C(C(=O)NCC2CCCO2)c2c[nH]c3ccccc23)c1N (stereo not given)	4%	-2%
COc1ccc(N(C(=O)c2snc(C(N)=O)c2N)C(C(=O)NCc2ccccc2)c2ccc(O)cc2)cc1OC (stereo not given)	-2%	-17%
C/C(=N/Nc1ccccc1[N+](=O)[O-])c1ccc([N+](=O)[O-])cc1	-8%	-7%
COc1ccccc1OCc1nnc(SCC(=O)N2CCCCC2)n1-c1ccccc1	?	-1%
COCCC(=O)N1CCC(Oc2ccc(C(=O)NCCCC3CCCC3)cc2)CC1	21µM*	-6%
Nc1nc2ccc(C(=O)N3CCCCC3)cc2s1	12%	2%
COc1cccc(/C=C/C(=O)OCC(=O)Nc2cccc(S(=O)(=O)N3CCCCC3)c2)c1OC	?	8%
CCNC(=O)COC(=O)CCC(=O)c1cccs1	6%	11%
COC(=O)c1ccc(-c2noc(CN3CCCC(CNC(C)=O)C3)n2)cc1 (stereo not given)	-1%	-3%
Cc1ccnc(NCn2nnc3ccccc32)c1	16µM*	27%
O=C(N/N=C/c1ccc([N+](=O)[O-])o1)C(=O)Nc1ccc(C(=O)O)cc1	-24%	3%
COc1ccc(N2CCN(C(=O)CCNC(=O)c3ccccc3)CC2)cc1	-6%	-3%
O=C(O)c1cnc(-c2ccccc2)nc1-c1ccccc1	1%	-2%
Cc1cccn2c(CNCC(C)Oc3cccnc3)c(C(=O)N3CCOCC3)nc12 (stereo not given)	-15%	2%
N/C(=N\OC(=O)COc1ccc(Br)cc1)c1ccncc1	-6%	-1%
COC(=O)c1cccc(NC(=O)c2cnccn2)c1	19%	-2%
c1cncc(-c2cccnc2)c1	2%	0%
CCN(CC)Cc1ccc(OC)c(Cl)c1	-4%	0%
Fc1ccc2nc3c(nc2c1)CCCC3	-3%	-4%
COc1ccc(COC(=O)C2CCN(S(=O)(=O)c3ccc(C)cc3)CC2)cc1	-1%	0%
O=C1N=C(N2CCCCC2)S/C1=C\c1cn[nH]c1-c1ccccc1	-3%	20%
COc1ccccc1NC(=O)CCN1CCN(Cc2ccccc2)CC1	-20%	-8%
O=C(Nc1nc(-c2ccccc2)cs1)c1ccccc1F	-12%	0%
CCCCc1cc(=O)oc2cc(OCC(=O)NCc3ccccn3)c(Cl)cc12	-2%	2%
Nc1nc2c3ccccc3nc(Cc3ccccc3)n2n1	?	2%
O=C(CSc1n[nH]c(=O)[nH]c1=O)c1ccccc1[N+](=O)[O-]	-7%	2%
C=CCn1c(SCC(=O)NC2CCCCC2)nnc1-c1cccnc1	2%	-1%
O=C(CCS(=O)(=O)c1cccc2nonc12)Nc1ccc(Br)cc1	8%&-5%	1%
Cc1ccc(NC(=O)Cn2cccc2C2=NC(c3ccccc3)CO2)c(C)c1 (stereo not given)	-26%	29%
O=[N+]([O-])c1c(Nc2ccc(Br)cc2)ccc2nonc12	3%	0%
CCCCCc1ccc(-c2ccc(=O)[nH]n2)cc1	12%	3%
O=Cc1ccc(OCc2ccc3c(c2)OCO3)cc1	-6%	1%
COC(=O)C(Cc1ccccc1)NC(=O)CCCC(=O)NCc1cccc(OC)c1 (stereo not given)	2%	-10%
The listing continues:
SMILES	TDP1 cell CPT	N370S GC
CCn1c(COc2cccc3cccnc23)nnc1SCC(=O)O	?	1%
Cc1cnc(C(=O)NCc2ccc(F)cc2)cn1	2%	-7%
CC(C)OCCCNC(=O)c1cc2c(=O)n(C)c3ccccc3c2n1C	?	0%
CN1C(=O)N(C)C2(c3ccccc3)Nn3c(s/c(=C/c4ccccc4)c3=O)=NC12c1ccccc1 (stereo not given)	?	-2%
O=C(NCC1CCCO1)C1CCCN(S(=O)(=O)c2ccc(Cl)cc2)C1 (stereo not given)	9%	-5%
COc1cc(OC)c(NS(=O)(=O)c2cc(Br)cnc2N)cc1Cl	-12%	9%
O=C(O)COc1ccc(=O)n(-c2ccccc2)n1	-18%	-12%
N=c1c(S(=O)(=O)c2ccc(Br)cc2)cc2c(=O)n3ccccc3nc2n1CCN1CCOCC1	3%	/
CCN1CCN(C(CNS(=O)(=O)c2ccccc2)c2ccccc2)CC1 (stereo not given)	-9%	-22%
O=C(/C=C/c1ccccc1)Nc1nnc(SCC(=O)c2ccc3ccccc3c2)s1	-28%	7%
CCC(C)c1c(O)nc(SCc2ccccc2)[nH]c1=O (stereo not given)	-7%	20%
CC(=O)Nc1cccc(NC(=O)c2csc(C)c2)c1	-1%	0%
CSc1ncc(-c2ccccc2)cn1	14%	2%
c1ccc2[nH]c(SCc3cn4ccccc4n3)nc2c1	-5%	-3%
O=C(O)COc1ccc(NC(=O)c2ccc3c(c2)C(=O)N(C2CCCCC2)C3=O)cc1	9%	1%
O=C(Cc1ccc(F)cc1)N/N=C/c1ccc(-c2ccc(Cl)c(C(=O)O)c2)o1	-9%	-7%
CCc1cccc(NS(=O)(=O)c2c(C)[nH]c(=O)[nH]c2=O)c1	14%&3%	3%
